Source: PubChem
Rce1 inh: yeast Ras-converting enzyme inhibition; calls only; yeast membranes, quenched prenylated peptide cleavage fluorescence; AID 2563; hit rate 0.27% among 290,000; Q03530;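 active = fall in fluorescence gain of 50% or more versus controls, with final raw signal at or below 3038400; inconclusive = same 50% fall but final raw signal above 3038400; inactive = fall in fluorescence gain under 50%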;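 note: plate controls were neutral control wells for no effect and wells lacking membranes for full effect; tested at 10 µM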
HIV Env fusion: inhibitors of HIV Env-mediated cell fusion | hit rate 1.1% among 360,000 | inhibition, % at 12.3 µM | HeLa-JRFL Env/CEM21 cell fusion, luciferase;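 active = mean replicate inhibition score of at least 50 and every replicate individually at or above 50; inconclusive = only one of the two criteria met; inactive = mean below 50 and not all replicates reaching 50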;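 note: 0% = plate neutral controls and 100% = maraviroc near 300 nM; one replicate is shown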
PABP polyA inh: blocks human PABP binding to poly(A) RNA | hit rate 1% among 290,000 | inhibition, % at 35 µM | fluorescence polarization;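 active = 50% or more with normal probe brightness, or confirmed in later tests; inconclusive = above 50% with abnormal brightness, or retests that disagree; inactive = below 50% or failed in later tests; about a fifth of its hits are not listed in these tables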;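 note: calls also rest on retests at 20 µM and on dose response follow-up; controls were probe without protein and protein plus probe with vehicle; some compounds called inactive have numbers as strong as hits; many hits fall short of the cut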
Target sequence (P11940 whole entry, looked up): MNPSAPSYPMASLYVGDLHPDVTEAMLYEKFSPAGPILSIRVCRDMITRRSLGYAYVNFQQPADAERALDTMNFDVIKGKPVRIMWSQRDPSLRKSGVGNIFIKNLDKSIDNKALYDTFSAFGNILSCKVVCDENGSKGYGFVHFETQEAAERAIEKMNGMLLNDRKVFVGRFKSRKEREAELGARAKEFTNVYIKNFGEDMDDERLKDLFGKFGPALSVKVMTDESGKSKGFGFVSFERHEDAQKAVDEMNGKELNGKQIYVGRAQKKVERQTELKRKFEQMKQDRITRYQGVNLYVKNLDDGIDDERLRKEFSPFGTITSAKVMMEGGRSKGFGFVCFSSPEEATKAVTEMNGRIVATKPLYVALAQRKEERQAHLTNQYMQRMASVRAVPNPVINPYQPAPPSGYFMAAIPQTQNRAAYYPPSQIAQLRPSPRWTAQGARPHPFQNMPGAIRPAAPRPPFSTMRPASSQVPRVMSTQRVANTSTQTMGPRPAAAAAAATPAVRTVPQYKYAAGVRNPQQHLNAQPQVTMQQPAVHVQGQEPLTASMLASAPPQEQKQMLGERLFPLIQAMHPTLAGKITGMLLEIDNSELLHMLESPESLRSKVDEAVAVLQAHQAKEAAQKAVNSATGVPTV
eIF4H FP inh: inhibitors of RNA binding by human eIF4H | Q15056 | eIF4H fluorescence polarization binding assay | AID 2012 | hit rate 0.94% among 290,000 | inhibition, % at 35 µM;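 active = 50% or more with normal probe brightness, or confirmed in later tests; inconclusive = above 50% with abnormal brightness, or retests that disagree; inactive = below 50% or failed in later tests; about a fifth of its hits are not listed in these tables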;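 note: calls also rest on retests at 20 µM and on dose response follow-up; 0% = protein and probe with vehicle and 100% = probe without protein; strong numbers were not always called active; many hits fall short of the cut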
CSC inhib: cancer stem cell inhibition | hit rate 1.1% among 300,000 | cancer stem cell-like cells viability, luminescence | inhibition, % at 7.5 µM;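 active = mean at 75% or more and at least half the replicates too; inconclusive = mean and replicates disagree; tested in HMLE shEcad cells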;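 note: 0% = median of negative and 100% = median of positive control wells; the first replicate is given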
MT1-MMP act inh: MT1-MMP (human) activation inhibition; GFP/RFP ratio change, % at 20 µM; hit rate 0.061% among 360,000; P50281; HT1080 RFP-PRO-GFP cells, GFP/RFP ratio fluorescence, overnight; percent of plate control window, DMSO zero; AID 651647;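 active = GFP/RFP ratio change of at least 30% with cell ATP level not reduced by more than half and red fluorescence within 50% of control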; note: strong numbers were not always called active
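Assay system: HT1080 RFP-PRO-GFP cells | Dosing: 20 µM single dose, 1% DMSO | Incubation: Cells overnight before dosing, compound overnight, 37 °C, 5% CO2 | Evaluation: GFP/RFP fluorescence ratio | Control set: DMSO-only wells and HT1080 RFP-L50D-GFP cell wells as references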
Yeast UUG start: yeast start codon fidelity modulation | activity score, % at 18.7 µM | AID 602363 | hit rate 0.13% among 350,000 | S. cerevisiae UUG-firefly luciferase reporter, luminescence/redox ratio;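 active = replicate mean at a twofold rise or more, about +100% in these data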;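 note: firefly luciferase made from a UUG start codon reports start codon fidelity; reporter light over untreated wells divided by growth signal over untreated wells; some hits fall short of that in this replicate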
eIF4H FP inh retest: also measured in eIF4H FP inh; calls as there; inhibition, %; compound at 20 µM; confirmation average;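 mean of two retest wells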
PABP polyA inh retest: also measured in PABP polyA inh; calls as there; inhibition, %; compound at 20 µM; confirmation repeats;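 mean of two retest wells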
MT1-MMP act inh RFP: second read-out of MT1-MMP act inh, no call of its own (marks repeat the call); RFP signal change, %; measured here: RFP expression control read;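 0 = vehicle wells; hits needed this value within 50% of zero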
Active calls of the source: *; i = inactive; ? = inconclusive; / = no result given.

SMILES	Rce1 inh	HIV Env fusion	PABP polyA inh	eIF4H FP inh	CSC inhib	MT1-MMP act inh	MT1-MMP act inh RFP	Yeast UUG start	others
Cc1cccc(N2CCN(C(=O)CSc3nc4ccccc4nc3N3CC(C)OC(C)C3)CC2)c1C (stereo unspecified)	i	24	7	10	-2	-8	-19	-17
COc1cccc(C2c3c(C)nn(-c4ccc([N+](=O)[O-])cc4)c3N=C3C(=O)Nc4ccccc4N32)c1 (stereo unspecified)	i	17	3	-4	12	-9	-13	/
CN1OC[C@@H]2CN(S(=O)(=O)c3cccc4ccccc34)[C@H](c3ccc(-c4cccnc4)cc3)C[C@@H]21	/	-326	/	/	/	-1	-2	-5
O=C(COc1c(CO)cc(Br)cc1CO)NC1CCCc2ccccc21 (stereo unspecified)	i	-3	6	12	-16	6	4	/
Cc1c(NS(=O)(=O)c2ccc(NC(=O)CCC(=O)O)cc2)c(=O)n(-c2ccccc2)n1C	i	-1	-3	-6	-6	3	2	-13
CCCCC(O)(CCCC)C(=O)NN(C(=O)c1cccnc1Cl)c1ccccc1	i	-2	7	2	1	-3	-1	-14
Cc1cccc2c1cnn2C(=O)Nc1ccccc1Cl	i	-16	-6	-2	1	-4	4	-9
COc1ccc(C(C)(O)c2nc(-c3cccc(F)c3)cs2)cc1 (stereo unspecified)	/	5	/	/	/	-8	-12	-2
CCC(C)NC(=O)CN(C)S(=O)(=O)c1ccc2c(c1)c(=O)n(C)c(=O)n2C (stereo unspecified)	i	4	4	-4	-4	-3	3	-17
CCOc1cc(C2C3=C(CC(C)(C)CC3=O)N(CCOC)C3=C2C(=O)CC(C)(C)C3)ccc1OC	i	18	28	-4	-8	-2	-1	-13
CCOC(=O)C(=O)Nc1cc([N+](=O)[O-])ccc1C	i	5	-2	-3	-7	-4	-1	/
O=C1NC(=Nc2ccc(Cl)cc2)SC1Cc1cc(Cl)ccc1Cl (stereo unspecified)	i	/	30	-3	/	2	2	/
O=C(CCN1C(=O)/C(=C/c2ccccc2Cl)SC1=S)Nc1ccccc1C(=O)O	i	-16	18	0	8	2	-2	-3
O=C(COc1ccc2c(-c3ccccc3)cc(=O)oc2c1)NCCN1CCOCC1	i	5	-13	-4	29	2	-2	-21
COc1cc(NC(=O)CCCNC(=O)Cn2cnc3sc(C)c(C)c3c2=O)cc(OC)c1OC	i	3	4	-25	-18	2	2	-7
Cc1cc(C)n2[nH]c(=O)cc2n1	/	-2	/	/	/	4	7	-5
COc1cccc(CC(NC(C)=O)C(=O)NC2CCN(S(=O)(=O)c3ccc(F)cc3)CC2)c1OC (stereo unspecified)	i	-4	3	6	-11	1	2	-15
CN1CCN(C(=O)c2ccc(Cl)c(S(=O)(=O)N3CCCCCC3)c2)CC1	i	-11	-1	5	9	2	-2	/
CCCc1oc2c(c(=O)c1CC)C(=O)CC(C)(C)C2	/	-5	0	0	-12	-2	2	-11
FC(F)(F)C1CC(c2cccs2)Nc2ncnn21 (stereo unspecified)	i	/	10	-7	-11	0	0	-6
COC(=O)c1cnc(SC)nc1C	i	i	-8	0	-1	0	0	-10
Cc1ccccc1Cn1cc(NC(=O)c2cc(-c3cccs3)on2)cn1	i	-162	-3	3	34	4	-2	2
COc1ccc(C(=O)N2CCCC(Nc3ccc(C)c(C)c3)C2)c(OC)n1 (stereo unspecified)	i	/	-2	-1	-14	0	2	-5
O=Cc1ccc(Oc2cccc(C(F)(F)F)c2)nc1	i	8	-2	-7	-9	1	3	/
CN(C)C(CNC(=O)C1CCN(S(=O)(=O)c2ccccc2C(F)(F)F)CC1)Cc1ccccc1 (stereo unspecified)	/	11	/	/	/	2	-1	-9
SMILES	Rce1 inh	HIV Env fusion	PABP polyA inh	eIF4H FP inh	CSC inhib	MT1-MMP act inh	MT1-MMP act inh RFP	Yeast UUG start	others
Cc1nc(NC(=O)c2cncc(Br)c2)ccc1Br	i	-72	-8	-3	1	0	0	-3
COc1ccc(OC)c(NC(=O)CCCNC(=O)Cn2cnc3sc(C)c(C)c3c2=O)c1	i	-8	0	5	19	-1	-5	2
CS(=O)(=O)N(CC(N)=O)c1ccc2c(c1)OCO2	i	/	2	5	0	2	3	/
O=C(Cc1ccccc1)N/N=C/c1ccc[nH]1	i	14	-9	0	/	1	0	-5
CCOc1ccccc1NC(=O)C(=O)N/N=C/c1cc(Br)ccc1O	i	19	17	1	-5	-52	-10	/
COc1cc(/C=C2/CC/C(=C/c3ccc(O)c(OC)c3)C2=O)ccc1O	i	23	7	17	48	9	1	/
CCOc1cccc(-c2cc(C(=O)NN)[nH]n2)c1	i	-10	-7	0	0	4	1	/
Cc1cc(C(=O)NC2CCCCC2)c2cc(F)ccc2n1	i	2	0	2	-9	0	0	/
O=C(O)COc1ccccc1C(Nc1cccnc1)c1cc(Cl)c2cccnc2c1O (stereo unspecified)	i	/	23	100	/	3	1	/	eIF4H FP inh retest=-1;PABP polyA inh retest=3
CCOc1ccc(C(=O)NC2CCCCCCC2)cc1	i	-45	/	/	-14	1	3	/
CC1CN(C(=O)COC(=O)/C=C/c2cccc([N+](=O)[O-])c2)CC(C)O1 (stereo unspecified)	/	-2	/	/	2	-9	3	-19
COCCOC(=O)C(C#N)c1nc2ccccc2nc1N1CCCC1 (stereo unspecified)	i	/	8	15	-12	-3	3	-5
O=C(Cn1cccc1C(=O)c1ccccc1)NCc1ccco1	i	/	-3	-6	-3	-2	2	-16
COc1cccc(NC(=O)COc2cc(C)cc3oc(=O)cc(C)c23)c1	i	4	9	36	2	2	-1	-21
Cc1ccc(C(=O)O)cc1NS(=O)(=O)c1ccc2c(c1)oc(=O)n2C	i	-4	33*	77	1	-17	3	-17	eIF4H FP inh retest=25;PABP polyA inh retest=77*
Cc1ccc(SC(CC(=O)c2ccc(F)cc2)C(=O)O)cc1 (stereo unspecified)	i	-12	-2	-3	/	-1	0	-8
CCC(C(=O)NC1CCCC1)N(Cc1ccco1)C(=O)Cn1nnc(-c2ccc(C)cc2)n1 (stereo unspecified)	i	20	4	-4	-10	-6	-7	-9
CCN(C[C@H]1N[C@@](CC)(C(=O)OC)[C@H]2C(=O)N(C)C(=O)[C@@H]12)S(=O)(=O)c1ccc(OC)cc1	/	20	/	/	/	2	2	1
CCOC(=O)/C=C/C(=O)OCC(=O)Nc1cccc(Cl)c1Cl	i	3	1	-3	-14	2	0	-30
C(=N\Nc1ccc2ccccc2n1)/c1ccc2c(c1)OCCO2	i	?	4	-2	11	2	0	-89
O=S(=O)(Nc1ccccn1)c1ccc(Br)cc1	/	-8	-4	-6	0	2	9	-25
CC(C)c1ccc(N(CC(=O)NC2CCCCC2)C(=O)CCC(=O)Nc2ccccn2)cc1	i	11	-8	-16	-36	-2	-5	3
CN(C)C=Nc1nonc1-c1ncn[nH]1	i	/	-10	-6	-5	-4	6	-20
Cc1ccc(NC(=S)NCCc2ccccc2)c(C)c1	i	-5	0	-8	-19	2	6	/
CCOCCCNC(=O)C(c1ccc(C)cc1)N(Cc1ccc2c(c1)OCO2)C(=O)CNC(C)=O (stereo unspecified)	i	-357	-4	6	-7	1	1	6
SMILES	Rce1 inh	HIV Env fusion	PABP polyA inh	eIF4H FP inh	CSC inhib	MT1-MMP act inh	MT1-MMP act inh RFP	Yeast UUG start	others
O=C1CC/C=C\C[C@@H](CC(=O)N(CCO)Cc2ccccc2)C(=O)N[C@H](Cc2ccccc2)CO1	/	-4	/	/	-9	-1	5	-8
Cc1cccc(C(=O)Nc2ncc(CN3CCOCC3)s2)c1	i	/	1	6	-16	4	2	-12
CCOC(=O)C(CC)(CCC(=O)O)c1csc(Nc2ccc(C)cc2)n1 (stereo unspecified)	i	-8	1	-7	5	0	5	-4
S=C(NCCc1ccccc1)NC1CC2CCC(C1)N2Cc1ccccc1 (stereo unspecified)	i	-10	5	-4	-17	0	1	/
CC1Cc2ccccc2N1C(=O)c1cc2sccc2n1Cc1ccccc1 (stereo unspecified)	i	8	5	0	10	-5	5	-7
Cn1c(Cc2nc(-c3cnccn3)no2)nnc1SCC(=O)Nc1ccccc1	i	-3	-2	3	3	0	3	/
CN1CCN(C(=O)c2cnn3c(C(F)(F)F)cc(-c4cccs4)nc23)CC1	i	20	5	4	27	-2	2	7
Clc1ccc(-c2nnc(-c3ccccc3Cl)o2)cc1	i	-269	-2	-8	0	1	2	-24
CC(C)CC(C(=O)O)N1C(=O)C2C3C=CC(C2C1=O)C1C(=O)N(C(CC(C)C)C(=O)O)C(=O)C31 (stereo unspecified)	i	6	0	-2	-12	-3	1	-12
Cc1ccc(S(=O)(=O)CCc2nnc(NC(=O)c3ccccn3)s2)cc1	i	/	-6	3	8	5	5	-21
O=C(OCCCC(=O)N1CCOCC1)c1ccccc1	i	2	-2	-17	11	3	3	0
Cc1cc(NC(=O)CCSc2ccccc2)no1	i	18	-12	-7	-6	3	-1	/
COc1ccc(C(=O)COc2ccc(NC(C)=O)cc2)cc1	i	0	-10	-6	-8	7	1	-4
COc1ccc(S(=O)(=O)N2CCCCCC2)cc1N(C)S(=O)(=O)c1ccc(C)cc1	i	?	-1	-12	-2	/	/	2
O=C(Nc1ccccc1)O/N=C(\c1ccccc1)c1ccccn1	i	/	0	-8	1	9	2	-11
COc1ccc(OC)c(Nc2nc(C3CC3)nc3c2nnn3Cc2ccccc2)c1	i	/	2	-1	-7	3	-1	/
COc1cccc(/C=N/Nc2ccc(Cl)nn2)c1OC	i	-12	/	/	-1	1	-1	3
Cc1ccsc1C(=O)N1CC=C(c2ccccc2)CC1	i	-5	/	/	-4	2	0	-10
COc1ccc(-c2cccc(NS(=O)(=O)c3cc([N+](=O)[O-])ccc3Cl)c2)nn1	i	1	/	/	4	0	-1	9
Cc1cc(C(=O)O)c(C)n1Cc1ccncc1	i	-5	5	-7	-5	0	2	-7
Cc1c(C(=O)Nc2cc(S(=O)(=O)N3CCOCC3)ccc2N2CCOCC2)oc2ccccc12	i	30	-9	-11	8	-13	-15	12
CC(C)CN(C(=O)C1CC1)c1c(N)n(Cc2ccccc2)c(=O)[nH]c1=O	i	-3	/	/	26	-2	-1	/
CC1=C(/C=C/C(C)=C/C=C/C(C)=C/C(=O)O)C(C)(C)CCC1	i	8	7	3	-21	-1	4	-13
CCCOc1ccc(Cn2ccnc2)cc1[N+](=O)[O-]	i	-42	-6	-12	19	4	0	4
O=C(CCNS(=O)(=O)c1ccc(F)c(Cl)c1)NCc1ccccc1F	/	-2	/	/	2	1	2	-16
CCCOc1ccc(N2C(=O)CC(N3CCC(C(=O)OCC)CC3)C2=O)cc1 (stereo unspecified)	i	/	-2	-7	-6	2	0	1
CCN(CC)CCN(C(=O)c1ccc2c(c1)CCCC2)c1nc2ccc(C)cc2s1	i	9	-12	-7	25	2	3	29

Arranged by molar mass (rising): 4 of the compounds above.
SMILES	Rce1 inh	HIV Env fusion	PABP polyA inh	eIF4H FP inh	CSC inhib	MT1-MMP act inh	MT1-MMP act inh RFP	Yeast UUG start	others
COc1cccc(/C=N/Nc2ccc(Cl)nn2)c1OC	i	-12	/	/	-1	1	-1	3
O=C(Nc1ccccc1)O/N=C(\c1ccccc1)c1ccccn1	i	/	0	-8	1	9	2	-11
CN1CCN(C(=O)c2cnn3c(C(F)(F)F)cc(-c4cccs4)nc23)CC1	i	20	5	4	27	-2	2	7
O=C1CC/C=C\C[C@@H](CC(=O)N(CCO)Cc2ccccc2)C(=O)N[C@H](Cc2ccccc2)CO1	/	-4	/	/	-9	-1	5	-8
